Screening results deposited in PubChem by several laboratories.
ugtP null kill: growth inhibition of ugtP-null S. aureus, primary screen, RN4220 ugtP deletion, OD600; hit rate 0.54% among 330,000; 16 h; some inactives read as strong as hits; growth inhibition, % (concentration not given with the values);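 active = z-score under -3 and OD600 up to 0.15 on both plates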;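 also: plate controls were untreated wells for no effect and antibiotic for full effect; wells of about 80 µL received 100 nL stock; the first replicate is given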
Autofluor counter: flagged as autofluorescent in microsphere protease counterscreen. compound autofluorescence counterscreen, microsphere flow cytometry; hits give high values. fluorescence intensity (test concentration not listed). hit rate 3.1% among 360,000;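 active = at least 3 SD above the mean of all compounds, about 16000 in these data; inconclusive = too few beads counted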;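 also: 100 nL of 1 mM stock went into each well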
PrP UTR inh: inhibition of PrP 5' UTR reporter expression; cell-based PrP 5' UTR mRNA reporter, plate reader; inhibition, % (no concentration beside the values); hit rate 0.35% among 340,000; AID 488862, 2010;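 active = every replicate at 50% or more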;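 also: 0 = median of the neutral control wells; tested in H4 reporter cells; numbers are from one replicate; inactives centre near -14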
Mtb hypoxia rep: PubChem AID 1159583; M. tuberculosis hypoxia-regulated fluorescent reporter, fluorescence; fluorescence inhibition, % (test concentration not listed); hit rate 0.1% among 300,000;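 active = 35 to 45% if threefold the growth effect, above 45% if 1.5-fold the growth effect; inactive = the rest, general growth blockers included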;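 also: wells of about 50 µL received 100 nL stock; 0% = vehicle wells and 100% = reference inhibitor wells; whole bacteria with a GFP reporter of the hypoxia response; strong numbers were not always called active; many hits fall short of the cut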
BJeLR viability: MLPCN primary cell-based screen for lethality selective to Ras in HRASV12 cells. inhibition, % (test concentration not listed). hit rate 0.17% among 300,000. AID 1554, 2009. BJeLR (HRASV12) viability, CellTiter-Glo ATP luminescence, 48 h; reference of the scale not given here;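 active = replicate mean above 50%; inconclusive = above 50% but judged a plate artefact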;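 also: 50 nL library stock added to about 25 µL; numbers are from one replicate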
RN4220 kill: growth inhibition of S. aureus RN4220, primary screen, OD600; 16 h; inhibition, % (test concentration not listed); hit rate 0.33% among 330,000; AID 1259311, 2017;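 active = z-score of -3 or lower and OD600 up to 0.18 on both plates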;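 also: plate controls were untreated cells for no effect and reference antibiotic for full effect; stock transfer was 100 nL into about 80 µL; one replicate is shown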
Mtb hypoxia rep growth: further read-out of Mtb hypoxia rep, marked with its call; growth inhibition, %; measured here: M. tuberculosis growth (absorbance);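 0% = vehicle and 100% = reference antibiotic; read after six days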
Starred values were filed as active, the others as inactive.

`CCOC(=O)c1cnc(-n2nc(C)cc2C)nc1N(C)C` gave ugtP null kill 5, Autofluor counter 22817*, PrP UTR inh -13, Mtb hypoxia rep 5, BJeLR viability -5, RN4220 kill 5.9 and Mtb hypoxia rep growth 6.
For CN(C)C(CNC(=O)c1cc(S(=O)(=O)N(C)c2ccc(F)cc2)ccc1Cl)c1ccco1 (configuration not stated) the results were ugtP null kill 3, Autofluor counter inconclusive, PrP UTR inh -8, Mtb hypoxia rep 4, BJeLR viability -8, RN4220 kill 0.7 and Mtb hypoxia rep growth 10.
`CCN(C(=O)c1cnc(N2CCN(c3ncccn3)CC2)c2ccccc12)c1cccc(Cl)c1` gave ugtP null kill -1, Autofluor counter 4638, PrP UTR inh -15, BJeLR viability 3 and RN4220 kill -0.7.
`CC(C)NC(=O)c1ccc(COCC(F)(F)F)cc1` gave ugtP null kill -3, Autofluor counter 4212, PrP UTR inh -11, Mtb hypoxia rep -1, BJeLR viability -4, RN4220 kill 2.9 and Mtb hypoxia rep growth 7.
Screening COc1cc(C(=O)NC23CC4CC(CC(C4)C2)C3)cc(OC)c1OC returned ugtP null kill -4, Autofluor counter 4118, PrP UTR inh -13, Mtb hypoxia rep -1, BJeLR viability 2, RN4220 kill 1.2 and Mtb hypoxia rep growth 10.
Screening Cc1ccc(S(=O)(=O)N2CCN(C(=O)c3ccco3)CC2)cc1C returned ugtP null kill -3, Autofluor counter 3579, PrP UTR inh -3, Mtb hypoxia rep -14, BJeLR viability 7, RN4220 kill 0.0 and Mtb hypoxia rep growth -1.
`O=[N+]([O-])c1cc(S(=O)(=O)Nc2ccc(Cl)cc2)ccc1N/N=C/c1ccncc1` gave Autofluor counter 2125, PrP UTR inh -23 and BJeLR viability -1.
For O=S(=O)(N/N=C/c1ccccc1OCc1ccc(Cl)cc1)c1ccccc1 the results were Autofluor counter 2118, PrP UTR inh -26 and BJeLR viability 0.
`CCc1ccccc1NC(=O)CCC(=O)OCC(=O)c1ccc(-c2ccccc2)cc1` gave ugtP null kill 2, Autofluor counter 2490, PrP UTR inh -5, Mtb hypoxia rep 11, BJeLR viability -10, RN4220 kill 12 and Mtb hypoxia rep growth 9.
COc1ccccc1N1CCN(C(c2cc3ccc(C)cc3[nH]c2=O)c2nnnn2C2CCCC2)CC1 (configuration not stated) was read as ugtP null kill -5, Autofluor counter 14791, PrP UTR inh -3, Mtb hypoxia rep 4, BJeLR viability -3, RN4220 kill -0.2 and Mtb hypoxia rep growth 3.
O=C1CC(Sc2ncccn2)C(=O)N1c1ccccc1C(F)(F)F (configuration not stated) was read as ugtP null kill 9, Autofluor counter 2925, PrP UTR inh 8, BJeLR viability 0 and RN4220 kill 5.6.
For O=C(O)CC(Cc1ccccc1)C(=O)Nc1ccc([N+](=O)[O-])cc1 (configuration not stated) the results were ugtP null kill 7, Autofluor counter 2075, PrP UTR inh -33, Mtb hypoxia rep 1, BJeLR viability -7, RN4220 kill 5.0 and Mtb hypoxia rep growth -10.

Pulled by compound from the list above, seven records:
For O=S(=O)(N/N=C/c1ccccc1OCc1ccc(Cl)cc1)c1ccccc1 the results were Autofluor counter 2118, PrP UTR inh -26 and BJeLR viability 0.
Screening COc1cc(C(=O)NC23CC4CC(CC(C4)C2)C3)cc(OC)c1OC returned ugtP null kill -4, Autofluor counter 4118, PrP UTR inh -13, Mtb hypoxia rep -1, BJeLR viability 2, RN4220 kill 1.2 and Mtb hypoxia rep growth 10.
`CCc1ccccc1NC(=O)CCC(=O)OCC(=O)c1ccc(-c2ccccc2)cc1` gave ugtP null kill 2, Autofluor counter 2490, PrP UTR inh -5, Mtb hypoxia rep 11, BJeLR viability -10, RN4220 kill 12 and Mtb hypoxia rep growth 9.
`CCOC(=O)c1cnc(-n2nc(C)cc2C)nc1N(C)C` gave ugtP null kill 5, Autofluor counter 22817*, PrP UTR inh -13, Mtb hypoxia rep 5, BJeLR viability -5, RN4220 kill 5.9 and Mtb hypoxia rep growth 6.
`O=[N+]([O-])c1cc(S(=O)(=O)Nc2ccc(Cl)cc2)ccc1N/N=C/c1ccncc1` gave Autofluor counter 2125, PrP UTR inh -23 and BJeLR viability -1.
For O=C(O)CC(Cc1ccccc1)C(=O)Nc1ccc([N+](=O)[O-])cc1 (configuration not stated) the results were ugtP null kill 7, Autofluor counter 2075, PrP UTR inh -33, Mtb hypoxia rep 1, BJeLR viability -7, RN4220 kill 5.0 and Mtb hypoxia rep growth -10.
O=C1CC(Sc2ncccn2)C(=O)N1c1ccccc1C(F)(F)F (configuration not stated) was read as ugtP null kill 9, Autofluor counter 2925, PrP UTR inh 8, BJeLR viability 0 and RN4220 kill 5.6.

The listing continues.
`NC(Cc1ccc(O)c([N+](=O)[O-])c1)C(=O)O` (configuration not stated) gave ugtP null kill 15, Autofluor counter 2059, PrP UTR inh -11, Mtb hypoxia rep 12, BJeLR viability -6, RN4220 kill 4.5 and Mtb hypoxia rep growth 6.
`CC1CN(C(C)CO)C(=O)c2cccc(NS(=O)(=O)c3ccc(F)cc3)c2OC1CN(C)C(=O)Nc1ccccc1` (configuration not stated) gave ugtP null kill -4, Mtb hypoxia rep 2, RN4220 kill 4.6 and Mtb hypoxia rep growth 8.
For Cc1ccc(S(=O)(=O)NCCSc2nnnn2-c2ccccc2)cc1 the results were ugtP null kill -6, Autofluor counter 13306, PrP UTR inh -11, Mtb hypoxia rep -6, BJeLR viability 6, RN4220 kill -1.3 and Mtb hypoxia rep growth 5.
`CCc1nnc(SCC(=O)Nc2ccc3c(c2)OCO3)o1` gave ugtP null kill 4, Autofluor counter 2863, PrP UTR inh -20, Mtb hypoxia rep 9, BJeLR viability -3, RN4220 kill 2.2 and Mtb hypoxia rep growth 11.
Screening S=c1[nH]nc(-c2ccccc2)c2ccccc12 returned ugtP null kill 0, Autofluor counter 2669, PrP UTR inh -5, Mtb hypoxia rep -2, BJeLR viability 7, RN4220 kill 6.0 and Mtb hypoxia rep growth 10.
Screening Cc1ccc(C(C(=O)Nc2ccc3c(c2)OCO3)N(C)C(=O)/C=C\c2ccc3c(c2)OCO3)cc1 (configuration not stated) returned ugtP null kill -16, Autofluor counter 8899, PrP UTR inh -10, Mtb hypoxia rep -3, BJeLR viability -8, RN4220 kill -2.3 and Mtb hypoxia rep growth 18.
Screening CN(C(=S)NC(=O)Cc1ccccc1)c1ccccc1 returned ugtP null kill 0, Autofluor counter 4495, PrP UTR inh -15, Mtb hypoxia rep 14, BJeLR viability 0, RN4220 kill 7.0 and Mtb hypoxia rep growth 10.
For C=CCOc1ccc(C(=O)/C=C2/C(=O)Nc3ccccc32)cc1 the results were ugtP null kill 14, Autofluor counter 3759, PrP UTR inh -20, Mtb hypoxia rep 9, BJeLR viability -6, RN4220 kill 2.2 and Mtb hypoxia rep growth 12.
Screening O=c1[nH]c(=O)n(CCc2ccccc2)c(O)c1/C=N/N1CCOCC1 returned ugtP null kill 5, Autofluor counter 3653, PrP UTR inh -15, Mtb hypoxia rep 5, BJeLR viability 10, RN4220 kill 1.2 and Mtb hypoxia rep growth 6.
Screening O=C(CSC(=S)N1CCCC1)N1CCN(S(=O)(=O)c2cccc([N+](=O)[O-])c2)CC1 returned ugtP null kill 8, Autofluor counter 4436, PrP UTR inh -5, Mtb hypoxia rep 5, BJeLR viability -6, RN4220 kill 1.7 and Mtb hypoxia rep growth 7.
Screening CC1CCN(CC(=O)Nc2ccccc2Sc2ccccc2)CC1 returned ugtP null kill 5, Autofluor counter 2253, PrP UTR inh -21, Mtb hypoxia rep -1, BJeLR viability 5, RN4220 kill 12 and Mtb hypoxia rep growth 5.
For O=C(CN1CCN(CCO)CC1)Nc1ccccc1 the results were ugtP null kill 4, Autofluor counter 3045, PrP UTR inh -11, BJeLR viability 19 and RN4220 kill 3.3.
`CCOc1cccc(=O)c2c(C)n(Cc3ccccc3)c(C)c12` gave ugtP null kill 0, Autofluor counter 2265, PrP UTR inh -21, Mtb hypoxia rep 4, BJeLR viability 4, RN4220 kill 3.5 and Mtb hypoxia rep growth 8.
`CCOC(=O)c1c(NC(C)=O)sc2c1CCN(Cc1ccccc1)C2` gave ugtP null kill 10, Autofluor counter 5686, PrP UTR inh -5, Mtb hypoxia rep -6, BJeLR viability 4, RN4220 kill 15 and Mtb hypoxia rep growth 12.
COc1cc2c(cc1OC)[C@@H](NC(=O)CCc1ccccc1)[C@H](O)C2 was read as ugtP null kill 3, Autofluor counter 3831, PrP UTR inh -16, Mtb hypoxia rep -4, RN4220 kill -1.1 and Mtb hypoxia rep growth 7.
Cc1ccnc(Nc2nc(-c3ccc(O)cc3)cs2)c1 was read as ugtP null kill 1, Autofluor counter 4355, PrP UTR inh -40, Mtb hypoxia rep 8, BJeLR viability 8, RN4220 kill 3.7 and Mtb hypoxia rep growth 1.
For c1csc(-c2nc(-c3ccncc3)no2)c1 the results were ugtP null kill -2, Autofluor counter 9529, PrP UTR inh -113, Mtb hypoxia rep 15, BJeLR viability 2, RN4220 kill 8.3 and Mtb hypoxia rep growth 2.
`COP(=O)(OC)C(Nc1cc(Cl)cc(Cl)c1)c1cccc(O)c1` (configuration not stated) gave ugtP null kill 1, Autofluor counter 2168, PrP UTR inh -2, Mtb hypoxia rep -2, BJeLR viability -8, RN4220 kill 12 and Mtb hypoxia rep growth -1.
For Cc1ccsc1C(=O)C1CCCN(Cc2cnn(C(C)C)c2)C1 (configuration not stated) the results were ugtP null kill 8, Autofluor counter 2462, PrP UTR inh -23, Mtb hypoxia rep 13, BJeLR viability -1, RN4220 kill 3.1 and Mtb hypoxia rep growth 8.
CN(C)c1ccc(NC(=O)c2ccc(N3CCOCC3)nc2)cc1 was read as ugtP null kill -8, Autofluor counter 5184, PrP UTR inh -45, Mtb hypoxia rep 12, BJeLR viability -11, RN4220 kill -1.5 and Mtb hypoxia rep growth 26.
C/C(N)=C(/C#N)C(=O)COC(=O)c1oc2ccccc2c1COC(C)C was read as ugtP null kill -1, Autofluor counter 3913, PrP UTR inh -29, Mtb hypoxia rep -8, RN4220 kill -0.9 and Mtb hypoxia rep growth -2.
COc1ccc(Cn2c(C)nc3oc4cc(OC)ccc4c(=O)c3c2=O)cc1 was read as ugtP null kill 2, Autofluor counter 4554, PrP UTR inh -8, Mtb hypoxia rep 0, BJeLR viability -6, RN4220 kill 2.3 and Mtb hypoxia rep growth 7.
CN(Cc1ccccc1)C(=O)c1nc[nH]c1C(=O)N1CCN(c2ccccc2)CC1 was read as ugtP null kill -2, Autofluor counter 3974, PrP UTR inh -13, Mtb hypoxia rep 21, RN4220 kill 1.7 and Mtb hypoxia rep growth 10.
Screening C=CCNC(=O)C(C)N1c2cccc3cccc(c23)S1(=O)=O (configuration not stated) returned ugtP null kill 7, Autofluor counter 3993, PrP UTR inh -13, Mtb hypoxia rep 6, BJeLR viability -22, RN4220 kill -2.4 and Mtb hypoxia rep growth 4.
For COc1ccc(C(=O)CNc2ccc3ccccc3c2)cc1 the results were ugtP null kill -1, Autofluor counter 3202, PrP UTR inh -46, Mtb hypoxia rep -3, BJeLR viability -12, RN4220 kill 1.8 and Mtb hypoxia rep growth 0.
`COc1ccc(N2C(=O)CC(N3CCOCC3)C2=O)cc1` (configuration not stated) gave ugtP null kill 11, Autofluor counter 4197, PrP UTR inh -29, BJeLR viability -10 and RN4220 kill -0.5.
CC(C)(C)[C@@H]1CCC(=O)N(CC[C@H](Sc2ccccc2)c2ccccc2)CC1 was read as Autofluor counter 4072, PrP UTR inh -11 and BJeLR viability 0.
CC(C)c1nc(CN(C)C(=O)NC(C(=O)NC(Cc2ccccc2)CC(O)C(Cc2ccccc2)NC(=O)OCc2cncs2)C(C)C)cs1 (configuration not stated) was read as ugtP null kill -7, Mtb hypoxia rep -11, RN4220 kill 4.8 and Mtb hypoxia rep growth 5.
